Compound activity deposited in PubChem BioAssay by National Center for Advancing Translational Sciences (NCATS).
RE007 growth inh: less growth of the S. pombe RE007 Vpr strain; S. pombe RE007 Vpr strain, BacTiter-Glo ATP luminescence, 24 h; control for the full effect not named in the record; 0.21% of 360,000 active; Potency, µM (highest dose often 92.2 µM), inactives show top-dose activity change, negative = less growth; active = well fitted falling curve with a large enough effect; inconclusive = small, poorly fitted or top-dose-only effect; inactive = no such curve, though single readings can be large or run the other way;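 note: % is set by controls: 0 for no effect and ±100 for the full control effect; nearly all actives have a fitted effect of over 50% in size; the assay follows cell death caused by Vpr and the record does not say whether a fall means rescue or toxicity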
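Fission yeast RE007 carrying one integrated HIV-1 vpr copy, seeded at OD 0.01 in PMG+AL medium with 23 nL pinned compound. Grown 24 h at 30 degrees; viability read by BacTiter-Glo luminescence after 5 min.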
Marburg entry inh: inhibitors of Marburg virus binding or cell entry. Marburg virus pseudotyped entry inhibition, cell reporter; control for the full effect not named in the record; about a third of the inactives were read at about 46 µM. Potency, µM (highest dose often 37.8 µM), for inactives: at the top dose activity change, negative = inhibition, most hits filed as inhibitors. 1.8% of 300,000 active; active = well fitted inhibition curve with a large enough effect; inconclusive = small, poorly fitted or top-dose-only effect, or effect the other way; inactive = flat fitted curve, though single readings scatter; tested in HEK293 cells; about a fifth of its hits are not listed in these tables; note: % is set by controls: 0 for no effect and ±100 for the full control effect; luciferase read-out
Cruzain Triton: cruzain (T. cruzi) inhibition with detergent. P25779. purified cruzain, Z-FR-AMC fluorescence, 0.01% Triton. Potency, µM, without a hit: max response, negative = inhibition, usual class: inhibitors. 0.43% of 200,000 active. AID 1478;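 note: plate controls were neutral wells for no effect and buffer without enzyme for full effect; nearly all actives have a fitted effect of over 40% in size; top concentration of the series not given in the record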
Target sequence (P25779 123-467 limits assumed): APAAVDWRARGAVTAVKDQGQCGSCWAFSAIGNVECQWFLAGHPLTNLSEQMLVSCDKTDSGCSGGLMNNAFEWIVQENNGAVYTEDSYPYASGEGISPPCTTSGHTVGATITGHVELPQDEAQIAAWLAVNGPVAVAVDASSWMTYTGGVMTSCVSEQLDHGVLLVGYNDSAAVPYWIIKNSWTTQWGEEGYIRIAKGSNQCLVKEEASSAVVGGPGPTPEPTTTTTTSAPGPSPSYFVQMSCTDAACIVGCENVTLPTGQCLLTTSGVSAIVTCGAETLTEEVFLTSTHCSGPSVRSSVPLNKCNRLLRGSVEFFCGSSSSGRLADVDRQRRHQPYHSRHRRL
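Sodium acetate buffer (100 mM, pH 5.5) containing 5 mM DTT and 0.01% Triton X-100 hosted 1.5 nM cruzain and test compound for 15 min at room temperature. Cleavage of 2 uM Z-FR-AMC was then tracked by fluorescence.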
2A StopGo: lowers the luciferase signal of an FMDV 2A StopGo reporter | AID 1159524 | 1.2% of 410,000 active | Potency, µM (titrated, usually from 57.9 µM), inactives show at the highest dose signal change, negative = less light | human cells with a luciferase reporter of 2A StopGo recoding; control for the full effect not named in the record; active = well fitted falling curve with a large enough effect; inconclusive = small, poorly fitted or top-dose-only effect; inactive = no such curve, though single readings can be large or run the other way; tested in HEK293T cells; note: % is set by controls: 0 for no effect and ±100 for the full control effect; nearly all actives have a fitted effect of over 45% in size; luciferase light after 4 h
SARS PLP yeast: blocks SARS-CoV papain-like protease in a yeast assay; 0.19% of 330,000 active; Potency, µM (highest dose often 32.9 µM), without a hit: at the highest dose activity, positive = growth rescue; S. cerevisiae expressing SARS-CoV PLpro, growth rescue; control for the full effect not named in the record; active means well fitted rising curve with a large enough effect; inconclusive means small, poorly fitted or top-dose-only effect; inactive means no such curve, though single readings can be large or run the other way; note: 0% is about no effect; nearly all actives have a fitted effect of over 55% in size; growth read by luminescence after 48 h
Lassa entry inh: blocks Lassa virus binding to or entry into cells; 1.2% of 300,000 active; Lassa virus pseudotype entry inhibition, cell reporter; control for the full effect not named in the record; AID 540256; Potency, µM (top dose mostly 37.9 µM), without a hit: at the top dose activity change, negative = inhibition, actives largely listed as inhibitors; active means well fitted inhibition curve with a large enough effect; inconclusive means small, poorly fitted or top-dose-only effect, or effect the other way; inactive means flat fitted curve, though single readings scatter; tested in HEK293 cells; note: % is set by controls: 0 for no effect and ±100 for the full control effect; nearly all actives have a fitted effect of over 50% in size; luciferase read-out
NS1 function inh: influenza NS1 inhibition; AID 2326; 0.4% of 270,000 active; Potency, µM (highest dose often 46.1 µM), inactives show at the highest dose activity, positive = more growth; S. cerevisiae slowed by influenza A NS1, growth recovery by OD600; active means well fitted rising curve with a large enough effect; inconclusive means small, poorly fitted or top-dose-only effect; inactive means no such curve, though single readings can be large or run the other way; note: nearly all actives have a fitted effect of over 50% in size
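In this qHTS, NS1 from influenza A is expressed in budding yeast, where it slows growth. Cells are switched from glucose to 2% galactose medium (pH 6.0, -URA), treated with compound, and growth recovery is read at OD600.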
Cruzain noTriton: inhibitors of Trypanosoma cruzi cruzain without detergent. Potency, µM, for inactives: max response, negative = inhibition, most hits filed as inhibitors. AID 1476. 2.3% of 200,000 active. purified cruzain, Z-FR-AMC fluorescence, no detergent;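 note: plate controls were enzyme without inhibitor for no effect and buffer without enzyme for full effect; nearly all actives have a fitted effect of over 40% in size; top concentration of the series not given in the record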
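Purified cruzain at 1.5 nM, pre-incubated 15 min with compound at room temperature in 100 mM sodium acetate pH 5.5, 5 mM DTT, 0.00005% Triton X-100. Reaction started with 2 uM Z-FR-AMC; AMC fluorescence increase over 60 s gives rate.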
* marks the source's active call; other numbers are inactive results; ? = inconclusive; · = not tested or not shown; & = joins results of further samples; [ ] = dose if it differs, or a comment. Unless noted, calls come from the whole dose curve; as a rule, active = well fitted curve in the direction sought with a large enough effect; inconclusive = small, poorly fitted or top-dose-only effect, or another doubt; inactive = no such curve, though single readings can be large; an effect the other way counts as inactive or inconclusive. Potency is the fitted concentration of half-maximal effect.

1) C/C(=N\NC(=O)c1cccc(Br)c1)c1ccc(Br)cc1
2) COc1ccc(CCNc2ccc(C(=O)O)cc2[N+](=O)[O-])cc1OC
3) CCOC(=O)CSc1nnc(CNC(=O)c2cccs2)n1CCc1ccccc1
4) CC1CCCC(NC(=O)CSc2nccn2C)C1C (stereo not given)
5) Cc1[nH]c(=O)[nH]c(=O)c1S(=O)(=O)N1CCOCC1
6) CCOc1ccc(C(=O)NC(=S)Nc2ccc(N3CCCCC3)cc2)cc1[N+](=O)[O-]
7) N#CC(=C1CCCC1)c1nc(-c2ccccc2O)cs1
8) CCCCC(=O)N(c1ccc(OC)cc1)C1C=CS(=O)(=O)C1 (stereo not given)
entry no.	1	2	3	4	5	6	7	8
RE007 growth inh	9%	2%	-3%	-6%	18%	-12%	-3%	2%
Marburg entry inh	6%	-16%[46.1 µM]	-20%	10%	-7%	-2%	?	3%
Cruzain Triton	3.3%	·	2.8%	-0.3%	3.9%	-10%	-8.7%	7.0%
2A StopGo	31%[activator]	19%	1%	-7%	-13%	?	13%	2%
SARS PLP yeast	0%	0%	-6%	-4%	-1%	30%	-9%	-2%
Lassa entry inh	0%	-9%[46.1 µM]	-22%	-4%	3%	?	10µM*	-7%
NS1 function inh	?	·	-2%	0%	6%	8%	2%	-6%
Cruzain noTriton	0%	·	1%	3%	8%	-14%	?	10%

9) COc1cc(S(=O)(=O)N2CCOCC2)ccc1NC(=O)c1cc2c(s1)CCC2
10) Cc1cc(Cl)cc(Br)c1OCCCCn1cncn1
11) NNC(=O)[C@H](Cc1ccccc1)NC(=O)Nc1ccc2c(c1)OCCO2
12) COc1ccccc1NC(=O)CSc1nnc(CC(=O)Nc2ccccc2C)n1C
13) CC1CN(c2nc3ccccc3nc2C(C#N)C(=O)NCc2ccc3c(c2)OCO3)CC(C)O1 (stereo not given)
14) O=C(NC12CC3CC(CC(C3)C1)C2)N1CCN(c2ccccn2)CC1
15) COC(=O)Nc1ccc(C)c(NC(=O)OC)c1
16) CCOc1ccccc1NC(=O)CCc1c(C)nc2c(c(C)nn2-c2ccccc2)c1C
entry no.	9	10	11	12	13	14	15	16
RE007 growth inh	5%	-11%	3%	-26%	7%	5%	-7%	·
Marburg entry inh	?	6%[46.1 µM]	22%[46.1 µM]	19%[46.1 µM]	-17%&-17%	2%	0%	5%[46.1 µM]
Cruzain Triton	-7.5%	5.1%	·	·	2.4%	-0.8%	-0.1%	-1.6%
2A StopGo	8%	0%	-2%	9%	-14%	·	8%	?
SARS PLP yeast	-4%	-4%	-1%	-3%	-2%	-1%	7%	·
Lassa entry inh	-3%	1%	21%[46.1 µM]	·	?	-28%	2%	4%[46.1 µM]
NS1 function inh	5%	-49%	7%	1%	-5%	-12%	2%	·
Cruzain noTriton	?	?	·	·	1%	-2%	0%	4%

17) CC1(C)CC(CCNCc2ccc3c(c2)OCO3)(Cc2ccccc2)CCO1 (stereo not given)
18) COc1ccc(CN2CCNC(=O)C2CC(=O)N(C)Cc2nccs2)cc1OC (stereo not given)
19) CCOC(=O)Cn1c(C)c(Br)c(=O)c2cccc(C)c21
20) CC(=O)c1cccc(NC(=O)CCc2c(C)nc3c(c(C)nn3-c3ccccc3)c2C)c1
21) CCc1c(C)nc2c(OC)cccc2c1Cl
22) CC(NC(=O)c1ccc(Br)cc1)C(=O)NC1=NCCS1 (stereo not given)
23) Cc1ccc(N2C(=O)NC(=O)/C(=C\c3cc(C)n(-c4cc(C(=O)O)cc(C(=O)O)c4)c3C)C2=O)cc1
24) Cc1cccc(NC(=O)CCN2C(=O)C3C4C=CC(C4)C3C2=O)n1 (stereo not given)
entry no.	17	18	19	20	21	22	23	24
RE007 growth inh	-15%	-8%	-2%	·	-21%	?	26%	5%
Marburg entry inh	?	11%[46.1 µM]	25%[46.1 µM]	6%[46.1 µM]	·	12%[46.1 µM]	?	?
Cruzain Triton	·	·	-1.8%	-7.4%	·	·	·	5.9%
2A StopGo	8%	-27%	3%	?	7%	21%	45%[activator]	-4%
SARS PLP yeast	-1%	-3%	0%	·	-1%	-4%	0%	1%
Lassa entry inh	?	?	19%	?	·	10%[46.1 µM]	?	3%
NS1 function inh	2%	-4%	-104%	·	-5%	16%	6%	-23%
Cruzain noTriton	·	·	-6%	9%	·	·	·	-4%

25) CCCOC(=O)c1ccc(OCC(O)Cn2c(C)nc3ccccc32)cc1 (stereo not given)
26) CNS(=O)(=O)c1cccc(C(=O)OCC(=O)Nc2ccccc2OC(F)F)c1
27) CCOc1ccc(C2Nc3ccccc3NC3=C2C(=O)CC(C)(C)C3)cc1OC (stereo not given)
28) O=C(CN(C(=O)c1csnn1)c1ccccc1C(F)(F)F)NCc1ccccc1
29) O=C(COc1ccccc1)Nc1ccc2nc(SCC(=O)N3CCCC3)sc2c1
30) O=C1CN(C(=O)NCC(=O)N[C@@H](C(=O)O)c2ccccc2)c2ccccc2N1
31) O=C(O)/C=C/c1ccc2c(c1)OCCO2
32) Cc1ccc(OCCSc2nc3ccc(NC(=O)c4ccc5c(c4)OCO5)cc3s2)cc1
entry no.	25	26	27	28	29	30	31	32
RE007 growth inh	-10%	17%	-13%	10%	·	4%	0%	·
Marburg entry inh	1%	26%[46.1 µM]	?	3%[46.1 µM]	?	·	·	-2%[46.1 µM]
Cruzain Triton	4.4%	4.0%	·	·	-6.7%	·	·	-0.7%
2A StopGo	?	25%	17%	-1%	?	-1%	-13%	?
SARS PLP yeast	2%	9%	-1%	-6%	·	3%	1%	·
Lassa entry inh	·	15%	-7%	-24%[46.1 µM]	8%[46.1 µM]	·	·	-27%[46.1 µM]
NS1 function inh	-22%	-13%	10%	-18%	·	17%	?	·
Cruzain noTriton	-6%	-1%	·	·	30%	·	·	2%

33) Cc1ccc(C(=O)N2CCN(c3ncnc4c(C)csc34)CC2)cc1
34) COC(=O)c1[nH]c2ccccc2c1NS(=O)(=O)c1ccc(F)c(C)c1
35) Cc1ccc(NC(c2nnc(-c3ccccc3)o2)c2ccccc2F)c([N+](=O)[O-])c1 (stereo not given)
36) O=c1[nH]c(=O)n(Cc2ccc(F)cc2)c(O)c1C=NCCCn1ccnc1
37) COc1ccccc1NC(=O)CSc1nc(C)c2c(c1C#N)CCCC2
38) COc1ccc(/C=N/NC(=O)CCn2nnc3ccccc32)cc1
39) COc1ccc(/C=C/C(=O)c2cc(F)ccc2OC(=O)c2ccccc2OC)cc1OC
40) Oc1ccccc1C(=S)N1CCN(c2cccc(Cl)c2)CC1
entry no.	33	34	35	36	37	38	39	40
RE007 growth inh	-3%	2%	·	11%	0%	-2%	-8%	-10%
Marburg entry inh	?	-13%	·	11%	-2%	·	?	-7%[46.1 µM]
Cruzain Triton	·	-1.9%	2.0%	1.2%	-2.2%	·	·	·
2A StopGo	-22%	-12%	37%[activator]	0%	-9%	19%	8.9µM*	23%
SARS PLP yeast	0%	-3%	·	-4%	-1%	0%	-8%	-1%
Lassa entry inh	-1%	-1%	15%[46.1 µM]	-4%	1%	·	?	?
NS1 function inh	3%	-20%	·	-1%	17%	-1%	·	-33%
Cruzain noTriton	·	6%	-9%	8%	-2%	·	·	·

41) O=C(Cn1c(=O)[nH]c2ccccc2c1=O)N1CCN(Cc2ccc3c(c2)OCO3)CC1
42) COc1ccccc1CNC(=O)C(=O)Nc1ccc(C(=O)N2CCC(C)CC2)cc1
43) Cc1cc(=O)oc2cc(OCC(=O)N3CCN(C(=O)C4COc5ccccc5O4)CC3)ccc12 (stereo not given)
44) CN1C(c2ccc(F)cc2)=CS/C1=C(/C#N)c1nnc(N2CCOCC2)n1-c1ccccc1
45) N/C(Cc1cccc2ccccc12)=N\OC(=O)c1ccc2c(c1)OCO2
46) CCOC(=O)c1c(/N=C/C2C(=O)NC(=S)NC2=O)sc2c1CCC2
47) O=C1CC(NCc2ccncc2)C(=O)N1c1ccccc1 (stereo not given)
48) COc1cccc(-c2nnn(CCc3nn[nH]n3)n2)c1
49) COc1ccc(CSCC(=O)Nc2ccccc2SC)cc1
50) O=C(Cn1c(=O)n(-c2ccccc2)c(=O)n1CC(=O)N1CCCCC1)N1CCCCC1
entry no.	41	42	43	44	45	46	47	48	49	50
RE007 growth inh	5%	3%	-2%	-3%	-10%	10%	-19%	0%	-5%	-1%
Marburg entry inh	·	?	·	?	?	?	15%	-28%	?	25%
Cruzain Triton	·	·	·	-8.0%	·	·	4.4%	2.0%	-7.5%	2.0%
2A StopGo	?	11%	?	-27%	-22%	-9%	-17%	5%	-15%	9%
SARS PLP yeast	-5%	12%	3%	3%	-2%	-3%	1%	-9%	5%	-2%
Lassa entry inh	·	?	·	-7%	2%	?	-3%	-25%	-22%	-1%
NS1 function inh	5%	7%	-15%	5%	3%	·	?	17%	2%	-4%
Cruzain noTriton	·	·	·	10%	·	·	9%	-3%	-3%	3%

4 of the compounds above, with tabs.
#	Compound	RE007 growth inh	Marburg entry inh	Cruzain Triton	2A StopGo	SARS PLP yeast	Lassa entry inh	NS1 function inh	Cruzain noTriton
46	CCOC(=O)c1c(/N=C/C2C(=O)NC(=S)NC2=O)sc2c1CCC2	10%	?	·	-9%	-3%	?	·	·
49	COc1ccc(CSCC(=O)Nc2ccccc2SC)cc1	-5%	?	-7.5%	-15%	5%	-22%	2%	-3%
48	COc1cccc(-c2nnn(CCc3nn[nH]n3)n2)c1	0%	-28%	2.0%	5%	-9%	-25%	17%	-3%
45	N/C(Cc1cccc2ccccc12)=N\OC(=O)c1ccc2c(c1)OCO2	-10%	?	·	-22%	-2%	2%	3%	·
